Beta apoptosis: blocks beta cell apoptosis | INS-1E cytokine-induced death, ATP luminescence, 48 h; percent of positive-control rescue, neutral wells zero | protection from apoptosis, % (no concentration beside the values) | 300,000 tested, 0.8% active | AID 435005;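 active means all replicates at 75% or more, or half of them and the mean; inconclusive means half reach 75% but not the mean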;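 further: 0% = cytokine-treated negative control wells and 100% = positive control rescue; higher means more ATP so stronger rescue from cytokine killing; wells of about 40 µL received 100 nL stock; the first replicate is given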
AF4-AF9 inh: MLL-AF4/AF9 protein interaction inhibition | P42568 | inhibition, % at 10 µM | AID 651704 | AlphaScreen, biotin-AF4 peptide binding to FLAG-AF9 | 350,000 tested, 0.47% active;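 active means every replicate reaching a set inhibition limit, whatever the replicate mean, cut at about 25% in these data; inconclusive means mean inhibition reaches that limit but some replicates miss it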;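 further: 0% = plate neutral control median and 100% = total signal loss; the record names both 10 and 1 µM as test concentration; the first replicate is given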
T cruzi inh: blocks replication of Trypanosoma cruzi; T. cruzi beta-gal in NIH3T3, luminescence, 90 h; inhibition, % (test concentration not listed); 300,000 tested, 1.4% active; AID 1885;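 active means mean inhibition across valid replicates above about 55%, limit read from the data; inconclusive means mean below that limit but half or more replicates reach it; inactive means mean below it, under half of replicates reach it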;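 further: signal also drops with host cell toxicity which is not excluded here; 0% = plate median of DMSO wells and 100% = zero luminescence signal; higher percent means less beta-gal luminescence so fewer parasites; stock transfer was 50 nL into about 50 µL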
RanGTP-Impb inh: disruptors of Ran-importin-beta complex formation – biochemical, FRET, CFP-Ran, YFP-importin-beta, homogeneous, primary screen. cell-free CFP-Ran/YFP-importin-beta FRET ratio. AID 2216. inhibition, % (test concentration not listed). 300,000 tested, 1.1% active;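 active means most replicates above 15%; inconclusive means exactly half above 15%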;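 further: 0% = DMSO wells and 100% = Ran loaded with GDP instead of GTP; wells of about 40 µL received 100 nL stock; the first replicate is given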
Calb FLC: C. albicans growth modulation with fluconazole. AID 1979. C. albicans CaCi-2 (fluconazole-resistant clinical isolate) + fluconazole, Alamar Blue growth, 48 h. growth inhibition, % (no concentration beside the values). 300,000 tested, 0.57% active;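 active means most replicates above 75%; inconclusive means exactly half above 75%; inactive means most below 75%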;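 further: all wells also contain fluconazole at 8 µg/ml as a sub-toxic cotreatment; 0% = median of DMSO wells and 100% = median of geldanamycin control wells; wells of about 8 µL received 7.5 nL stock; the first replicate is given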
LANA-H2B inh: blocks KSHV LANA binding to histone H2A/H2B | inhibition, % (no concentration beside the values) | 320,000 tested, 0.6% active | Q9QR71 | cell-free LANA-H2A/H2B peptide, fluorescence polarization; in the data active means inhibition mostly above about 10%, no sharp cut-off; inactive means mostly below about 6.7%;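 further: stock transfer was 7.5 nL into about 10 µL; 0% = median of vehicle wells and 100% = median of positive control wells; one replicate is shown; the record names a cut of 25% in any replicate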
Target sequence (Q9QR71 whole entry, looked up): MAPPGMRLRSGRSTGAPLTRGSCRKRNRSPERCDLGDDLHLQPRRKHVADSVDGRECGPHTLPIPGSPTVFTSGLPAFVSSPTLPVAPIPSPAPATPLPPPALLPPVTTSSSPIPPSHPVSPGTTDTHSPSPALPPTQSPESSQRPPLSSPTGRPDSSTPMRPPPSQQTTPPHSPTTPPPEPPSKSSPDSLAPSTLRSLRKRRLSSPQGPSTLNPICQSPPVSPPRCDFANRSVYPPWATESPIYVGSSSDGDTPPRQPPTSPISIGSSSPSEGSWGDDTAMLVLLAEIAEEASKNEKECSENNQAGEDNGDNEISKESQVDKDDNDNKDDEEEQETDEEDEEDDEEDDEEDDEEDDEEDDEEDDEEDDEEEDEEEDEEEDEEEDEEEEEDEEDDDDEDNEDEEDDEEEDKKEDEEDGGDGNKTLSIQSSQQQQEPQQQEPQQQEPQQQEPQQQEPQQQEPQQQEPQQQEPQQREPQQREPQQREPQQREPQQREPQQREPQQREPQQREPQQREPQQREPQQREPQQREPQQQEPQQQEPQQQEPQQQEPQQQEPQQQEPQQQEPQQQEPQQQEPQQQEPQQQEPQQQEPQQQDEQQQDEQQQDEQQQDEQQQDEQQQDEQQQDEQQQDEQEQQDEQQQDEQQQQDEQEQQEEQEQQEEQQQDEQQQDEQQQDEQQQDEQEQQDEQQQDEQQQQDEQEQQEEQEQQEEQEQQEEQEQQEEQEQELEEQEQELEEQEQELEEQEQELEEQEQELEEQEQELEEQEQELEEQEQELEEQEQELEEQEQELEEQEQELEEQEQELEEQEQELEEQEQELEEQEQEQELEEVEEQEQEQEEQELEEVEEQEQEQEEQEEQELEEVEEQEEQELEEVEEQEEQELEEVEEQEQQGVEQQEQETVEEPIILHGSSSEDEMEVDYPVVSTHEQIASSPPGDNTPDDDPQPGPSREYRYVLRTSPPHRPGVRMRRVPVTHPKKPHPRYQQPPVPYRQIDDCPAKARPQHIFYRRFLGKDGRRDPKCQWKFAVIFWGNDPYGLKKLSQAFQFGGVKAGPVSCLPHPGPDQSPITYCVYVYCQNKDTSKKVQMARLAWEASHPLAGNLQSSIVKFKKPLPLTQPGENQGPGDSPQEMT
Vif A3G: inhibitors of Vif binding to APOBEC3G peptide, primary screen, biochemical, TR-FRET, GST-Vif 1-94, biotin-A3G peptide, dose response retest (AID 1117319). 260,000 tested, 0.57% active. TR-FRET GST-Vif / biotin-A3G peptide binding; higher % means a stronger effect; test concentration not given here; strong numbers were not always called active. one-dose inhibition, %; IC50 in µM for titrated hits;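 active means above the screen mean plus three standard deviations and confirmed in dose response; inconclusive means results disagree or hit not tested in dose response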;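 further: Vif residues 1-94 fused to GST binding biotinylated APOBEC3G peptide 110-148; 0% = full assay without inhibitor and 100% = GST in place of GST-Vif; retest series ran down from 100 µM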
A1 inh: inhibitors of the anti-apoptotic protein A1, read as caspase activation; 330,000 tested, 0.066% active; AID 2462; caspase activation, % (test concentration not listed); MEF A1-2A-BIM cells, Caspase-Glo 3/7 luminescence, 3 h; percent of clofoctol response, vehicle zero;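 active means over half of replicate activation scores above 10%, or exactly half above 10 with the replicate mean above 10; inconclusive means replicate mean below 10 yet half the replicates above 10; inactive means over half of replicates below 10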;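 further: wells of about 30 µL received 50 nL stock; many hits fall short of the cut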
* marks the source's active call; other numbers are inactive results; ? = inconclusive; . = not tested or not shown; & = joins results of further samples.

Compound,Calb FLC,RanGTP-Impb inh,T cruzi inh,A1 inh,AF4-AF9 inh,LANA-H2B inh,Vif A3G,Beta apoptosis
O=C(CCc1ccncc1)NC1CCCc2c1cnn2-c1cc(F)cc(F)c1 (stereo not given),10.0,4.1,-17.0,1.4,.,-4.9,.,-6.5
COC(=O)c1ccccc1N1C(=O)[C@@H]2C(c3ccc(F)cc3)=NO[C@@H]2C1=O,12.7,6.9,2.3,0.6,.,2.9,1.3%,-6.8
CC(OC(=O)CCc1nc2ccccc2c(=O)[nH]1)C(=O)c1ccc(C(C)(C)C)cc1 (stereo not given),2.3,?,-6.3,-0.3,14.4,0.8,13.5%,-4.0
N#Cc1c(SCC(N)=O)nsc1SCc1ccc(Cl)cc1,8.6,?,-9.8,-1.0,.,4.0,-1.5%,-1.9
CC(=O)c1ccc2c(c1)Cc1cc(C(C)=O)ccc1-2,0.9,3.1,-2.4,1.0,.,1.3,.,3.6
Cc1sc2nc(SC(C)C)nc(N)c2c1C,-17.5,4.1,-6.9,-0.6,.,-0.5,5.7%,-4.6
CC1CC(C)CN(S(=O)(=O)c2cc3c4c(c2)CCN4C(=O)CC3)C1 (stereo not given),10.9,-4.5,2.3,1.3,4.8,1.3,-2.6%,-2.0
CCc1ccc[n+](-c2[nH]c(=O)sc2/C=N/N=C(\[O-])c2ccncc2)c1,-7.5,3.7,24.5,-0.3,-18.0,-3.1,0.3%,-1.4
CCOC(=O)c1c(C)nn(-c2ccc(NC(=O)c3cccs3)cc2)c1C,44.1,2.5,8.7,0.0,-8.1,-15.7,-3.9%,4.1
CCOC(=O)c1cc(-c2ccco2)nn1-c1ccc(C)cc1,1.5,1.6,-10.8,-0.8,-1.1,2.7,-3.2%,.
O=C(CNC(=O)OCc1ccccc1)NC1CCCCCCC1,-11.7,-0.7,8.5,-0.4,.,0.1,.,-8.0
Cc1ccc(NC(=O)Cc2ncc(C(F)(F)F)cc2Cl)cc1Cl,-27.2,-2.2,30.0,0.2,.,-0.2,4.2%,-7.0
Cc1ccc(NC(=O)CN(C)C(=O)CSc2ncc(C(F)(F)F)cc2Cl)cc1,1.6,4.9,-7.5,?,.,-5.7,-7.3%,-3.9
CCCOC(=O)CSc1nnc(-c2cc(OC)c(OC)c(OC)c2)o1,-0.4,0.7,11.2,-0.1,.,-0.5,-5.4%,-0.7
CCOC(=O)/C=C1\SCC(=O)N1CC(=O)NC12CC3CC(CC(C3)C1)C2,-2.1,-9.8,-30.8,-0.5,.,1.2,6.5%,4.9
COC(=O)c1ccccc1NC(=O)c1cnn2cccnc12,33.1,-3.7,-8.9,-0.3,-1.6,-0.2,1.0%,1.1
O=C(NC1CCCCC1)C1Cc2ccccc2CN1S(=O)(=O)c1ccc(F)cc1 (stereo not given),-1.5,3.9,7.5,0.8,-71.5,-3.6,-4.9%,-1.4
O=C(O)c1cc(OCc2ccccc2)cc(OCc2ccccc2)c1,8.0,2.1,6.6,0.5,-2.4,-1.6,1.2%,-8.0
CC(Sc1nnc(Cc2ccccc2)o1)C(=O)Nc1ccccc1[N+](=O)[O-] (stereo not given),.,.,.,-0.2,0.4,.,26.1%,-2.0
COC(=O)c1ccc(OCC2c3cc(OC)c(OC)cc3CCN2C(=O)c2ccco2)cc1 (stereo not given),7.1,-4.7,16.4,-0.9,2.0,3.8,-3.0%&-1.3%,-9.6
Cc1ccc(C(=O)N2CCCC(CCC(=O)N3CCN(c4ccccn4)CC3)C2)s1 (stereo not given),8.4,2.8,10.7,-0.3,0.8,0.5,1.3%,3.0
CN(C)c1ccc(C(=S)N2CCN(C(=S)Nc3cccc4ccccc34)CC2)cc1,-29.3,0.2,11.3,-0.2,-0.9,2.0,-0.9%,-20.9
COc1ccc(C(=O)CNc2ccccc2C#N)cc1,1.9,0.8,2.9,-2.3,-3.8,-0.9,.,-4.9
CN1CCCN(C(=O)CC2(CC(=O)O)CCCC2)CC1,1.9,?,-18.7,-0.8,-0.2,-2.0,.,-1.0
Cc1ccc(CNC(=O)COc2ccccc2-c2ccccc2)cc1,-7.7,-1.7,23.1,0.6,.,-1.5,-2.8%,-1.1

More entries follow.
Compound,Calb FLC,RanGTP-Impb inh,T cruzi inh,A1 inh,AF4-AF9 inh,LANA-H2B inh,Vif A3G,Beta apoptosis
CCOc1ccc(N2CC(C(=O)Nc3ccc4c(c3)OCCO4)CC2=O)cc1 (stereo not given),13.1,8.1,3.2,-0.2,2.7,6.7,.,-0.6
Cc1cnc(NC(=O)CCNC(=O)c2ccc([N+](=O)[O-])cc2)s1,-3.0,2.4,-6.4,0.0,2.3,-10.0,4.8%,0.8
CCn1c(SCc2nc(N)nc(N3CCCCC3)n2)nc2c1c(=O)n(C)c(=O)n2C,19.9,1.9,10.9,-0.5,.,8.0,-6.8%,-0.9
COc1ccc(C(CNC(=O)c2cc3ccccc3o2)N2CCCCC2)cc1 (stereo not given),-19.0,3.8,27.7,0.9,0.6,-0.7,-9.4%,0.4
COC(=O)C1=C(C)N(Cc2ccco2)C(=O)N[C@@H]1c1ccccc1,-0.9,-1.1,-23.7,0.1,-6.7,-0.2,3.9%,-3.6
CN(C)c1ccc(/C=N/Nc2cccc(C(=O)O)c2)cc1,-6.3,5.5,-8.7,-11.2,-3.3,-2.3,.,-6.4
CNC[C@@H](C)NC[C@@H](Cc1ccccc1)NCCc1ccccc1,-8.7,3.5,-29.9,1.0,2.8,-3.0,.,4.4
COc1cc(NC(=O)COc2ccccc2)c(OC)cc1NC(C)=O,27.6,3.7,-9.0,0.9,0.8,14.3*,0.5%,-3.6
Cc1ccc(NC(=O)C2COc3ccccc3O2)nc1 (stereo not given),-13.7,-0.3,-1.4,-0.3,.,-1.7,-5.9%,-5.2
O=C(Cc1ccc(Cl)cc1)Nc1ccc(S(=O)(=O)Nc2cnc3ccccc3n2)cc1,-9.7,-0.5,-6.1,0.4,-1.1,-12.0,.,-0.6
COC(=O)N/N=C/c1cn(CCOc2ccccc2OC)c2ccccc12,7.5,-2.3,-12.2,-1.2,7.1,-4.2,-10.9%,-4.1
CC(OCc1ccccc1)C(NC(=O)OC(C)(C)C)C(=O)NCC1CCCO1 (stereo not given),-6.0,?,1.1,0.0,.,-1.6,?,-5.4
CN(C)CCCNC(=O)C(=O)Nc1cc2c3c(c1)CC(=O)N3CCC2,13.9,-2.2,8.3,0.8,6.5,4.7,-1.3%,-7.3
Cc1ccc(S(=O)(=O)N(C)c2ccc(C(=O)N3CCOCC3)cc2)cc1,2.0,4.2,1.0,0.7,-10.5,-1.7,2.6%,-5.0
COc1cc(C(=O)NCc2nnc(SCC(=O)NCc3ccccc3)o2)cc(OC)c1OC,-0.2,1.1,-7.7,-0.3,.,2.1,-3.8%,-3.7
CSc1nnc(-c2ccc(NC(N)=S)cc2)o1,58.3,0.9,4.6,1.1,16.0,-7.2,10.6%,2.4
O=C(CN(c1ccccc1)S(=O)(=O)c1ccccc1)N/N=C/c1ccc(OC2CSC2)cc1,11.7,2.9,17.5,0.3,.,-1.2,17.5%,-2.2
COc1ccc(CC(=O)NNC(=S)Nc2ccc(Br)cc2)cc1,22.0,-3.3,15.7,0.4,.,2.2,2.8%,10.4
O=C(O)C1C2C=CC(C2)C1C(=O)NCc1ccc(Cl)cc1Cl (stereo not given),-0.1,-1.1,6.0,0.4,3.5,-5.2,4.2%,2.3
COc1ccc(C(=O)COC(=O)Cn2cnc3c2c(=O)n(C)c(=O)n3C)c(OC)c1,-0.7,-2.8,-3.9,0.2,0.5,6.1,.,-6.8
COc1ccc(/C=N\N=C2/SC(CC(=O)O)C(=O)N2c2ccc(O)cc2)cc1 (stereo not given),1.5,7.7,-10.5,1.2,.,2.5,-1.0%,-2.1
CSc1cc(-c2ccccc2)n(C)c(=O)c1C#N,103.9*,-3.4,8.7,0.2,-3.3,-5.4,-6.8%,1.1
COc1ccc(C(=O)O)cc1NC(=S)NC(=O)Cc1ccc(Cl)cc1,-5.4,-2.5,4.8,1.2,-1.5,-0.5,-4.6%,-7.0
COc1cccc(CC2(CO)CCN(S(=O)(=O)c3ccc(OC)cc3OC)CC2)c1,1.7,2.4,-2.7,0.3,-1.4,-5.2,-4.5%,.
CCN(CC)CCCNC(=O)CSc1nc(-c2ccc(F)cc2)cc(C(F)(F)F)n1,-7.4,-12.2,4.2,0.3,-0.8,-1.9,0.6%,0.6

Other records:
Compound,Calb FLC,RanGTP-Impb inh,T cruzi inh,A1 inh,AF4-AF9 inh,LANA-H2B inh,Vif A3G,Beta apoptosis
Cc1ccc2c(CN3CCN(CCO)CC3)cc(=O)oc2c1C,1.7,-1.6,54.9*,0.0,.,-3.9,0.7%,-5.1
O=C(c1cccc(OC2CCN(Cc3ccc(F)cc3)CC2)c1)N1CCCC1,2.0,3.0,18.9,.,-1.5,.,.,.
CC(Nc1ccc(Cl)c(Cl)c1)C(=O)NN (stereo not given),-1.6,3.7,2.5,0.4,-0.9,1.5,-6.7%,-7.1
COCc1ccc(C(=O)Nc2ccccc2C(=O)NCc2cccnc2)cc1,5.5,0.3,2.4,0.8,2.6,-5.2,.,0.0
O=C(NCc1cnc2ccccn12)C1CCC(=O)N(Cc2cccc(F)c2)C1 (stereo not given),5.2,5.3,0.9,0.1,-0.2,2.1,.,-5.6
CCN(CC)CCn1c(NCc2cc(OC)ccc2OC)nc2ccccc21,-4.3,3.6,-2.5,0.3,.,-0.5,3.3%,5.4
Cc1onc(-c2ccccc2)c1-c1nc2ccccc2c(=O)o1,0.0,1.8,7.1,-0.8,.,-1.9,-3.9%,7.8
COC(=O)c1cc(C)sc1NC(=O)c1cccnc1,110.0*,3.0,5.1,0.0,.,2.9,0.3%,-7.6
CCCCn1c(-c2cc(Cl)ccc2OC)n[nH]c1=S,1.7,.,5.0,0.0,.,1.6,0.4%,0.6
CC1Cc2ccccc2N1C(=O)CSc1nnc(-c2ccc(S(=O)(=O)N3CCOCC3)cc2)n1C (stereo not given),2.3,0.7,-1.9,0.9,.,8.9,24.3%,6.5
CC1CCCN(CCCOc2ccc([N+](=O)[O-])cc2)C1 (stereo not given),5.1,3.2,22.2,0.1,-0.2,-0.5,.,0.2
O=C(N/N=C/c1cccc2ccccc12)c1ccccc1Cl,25.0,-5.1,-9.3,-3.2,7.2,0.6,-2.4%,-2.2
CCSc1ccc(/C(N)=N/OC(=O)c2cccs2)cn1,5.3,1.2,6.0,-1.0,-0.3,-7.4,-7.4%,-1.3
N#C/C(=C(/O)COC(=O)Cc1c[nH]c2ccccc12)c1nc2ccccc2[nH]1,37.4,1.1,-20.2,-0.2,.,2.6,15.5%,-1.2
CC(=O)Oc1cc2c(cc1Cl)C1(CC(c3ccccc3Cl)O2)CC(C)(C)NC(=S)N1 (stereo not given),?,-1.8,39.2,0.5,.,6.7,5.5%,8.7
Cc1ccc(S(=O)(=O)NCCC(=O)Nc2nccs2)cc1,-4.0,-1.5,0.8,1.0,-0.3,1.8,?,-5.0
O=C(NCC1CCCO1)/C(=C\c1ccco1)NC(=O)c1ccccc1 (stereo not given),23.8,-3.9,-8.8,-2.1,.,3.7,12.1%,1.6

Source: PubChem BioAssay
